YjeE inh – displaces an ADP probe from E. coli YjeE (TsaE) | 71,000 tested, 0.05% active | Potency, µM | P0AF67 | purified YjeE, fluorescence polarisation of a bound ADP probe; active = well fitted falling curve; inconclusive = weaker or top-dose-only fall, or a rising curve; inactive = flat or poorly fitted curve;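 further: top concentration of the series not given in the record; excess ADP was the control for the full effect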
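Fluorescence polarization of a BODIPY Texas Red–ADP probe (2 uM) bound to purified YjeE (10 uM) was read after 15 min room-temperature incubation with compounds. Loss of polarization marks inhibitors; ADP serves as titrated control.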
PK Bst – modulators of Bacillus stearothermophilus pyruvate kinase | partly purified Bacillus stearothermophilus pyruvate kinase, luminescence ATP production; ribose 5-phosphate activator present at AC10 | AID 361 | 51,000 tested, 1.2% active | Potency, µM; in the data active means potency below about 11 µM; inconclusive means mostly about 12 µM to 25 µM; inactive means weaker than that;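 the screen sought inhibitors and activators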;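 further: potency means the concentration at half of the fitted maximal effect; scaled between full activation by ribose 5 phosphate and full inhibition by luteolin; about four in five hits inhibit and the cells do not say which; series up to 57 µM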
Starred values were filed as active, the others as inactive; i = inactive; u = inconclusive; x = no result given.

Start of the data: the first 2 compounds as a preview:
SMILES	YjeE inh	PK Bst
CC(=O)NC(CCS(C)(=O)=O)C(=O)Nc1cccc(C)c1 (configuration not stated)	i	x
COc1cc(C2=Nc3c(c(C)nn3-c3ccccc3)P(=O)(N3CCOCC3)O2)cc(OC)c1OC (configuration not stated)	i	>57

This part in full, repeating the preview:
SMILES	YjeE inh	PK Bst
CC(=O)NC(CCS(C)(=O)=O)C(=O)Nc1cccc(C)c1 (configuration not stated)	i	x
COc1cc(C2=Nc3c(c(C)nn3-c3ccccc3)P(=O)(N3CCOCC3)O2)cc(OC)c1OC (configuration not stated)	i	>57
CCCOc1cccc(C(=O)Nc2nnn(CCC)n2)c1	i	>57
Cc1ccc(N2C(=O)[C@@H]3Cc4ccccc4CN3C2=O)cc1	i	>57
COc1ccc(-c2nc(N)n(C(C)=O)n2)cc1	i	x
Cc1cc(C)c(/C=C2/C(=O)Nc3ccccc32)[nH]1	i	x
CC(C)c1cccc2nc3c(c([Si](C)(C)C(C)(C)C)c12)Cn1c-3cccc1=O	i	x
CCOC(=O)C(NCCCO)c1ccccc1 (configuration not stated)	i	>57
COc1cccc(CN(Cc2ccco2)C(c2ccc(F)cc2)c2nnnn2C(C)(C)C)c1 (configuration not stated)	i	>57
CCOC(=O)C1CCCN(Cc2c(F)cccc2Cl)C1 (configuration not stated)	i	>57
CCOC(=O)C(CC)n1nc(C)n2c(cc3sccc32)c1=O (configuration not stated)	i	x
O=C(Cn1nnc(-c2ccc(Cl)cc2)n1)NCC1CCCCC1	i	>57

3 entries from above, with each value named:
> COc1cccc(CN(Cc2ccco2)C(c2ccc(F)cc2)c2nnnn2C(C)(C)C)c1 (configuration not stated)
  YjeE inh: i
  PK Bst: >57
> CCOC(=O)C1CCCN(Cc2c(F)cccc2Cl)C1 (configuration not stated)
  YjeE inh: i
  PK Bst: >57
> CCOC(=O)C(CC)n1nc(C)n2c(cc3sccc32)c1=O (configuration not stated)
  YjeE inh: i
  PK Bst: x

Continuation.
SMILES	YjeE inh	PK Bst
COC(=O)c1[nH]c2cc(OC)c(OC)cc2c1NC(=O)c1cccc(OC)c1	i	i
COc1ccc(Cc2nn3c(-c4cc(OC)c(OC)c(OC)c4)nnc3s2)cc1	i	>57
COc1ccc(C(=O)Cn2nnc(-c3ccccc3NC(=O)c3ccco3)n2)cc1	i	>57
CC(=O)NCc1ccc(C(=O)CSc2nnc(-c3ccncc3)n2Cc2ccccc2)o1	i	>57
O=C(CS(=O)(=O)c1ccccc1)N1CCCCCC1	i	>57
CC(C)(C)OC(=O)NC(CCCCNC=O)C(=O)O (configuration not stated)	i	>57
CC1CC(C)CN(c2oc(-c3ccccc3Cl)nc2C#N)C1 (configuration not stated)	i	>57
N#CCCN1CCN(Cc2cc(-c3ccccc3)ccc2O)CC1	i	>57
CCOC(=O)c1c(C)c(C(=O)N2CCc3ccccc3C2)c(C)n1CC	i	>57
Cc1cc(NC(=O)CSc2nc(-c3cccs3)cc(C(F)(F)F)n2)no1	i	>57
COc1ccc(CC(=O)Nc2ccc3c(c2)OCO3)cc1S(=O)(=O)N1CCOCC1	i	>57
CC(=O)C1=C(O)C(=O)N(Cc2cccnc2)C1c1ccc(Cl)cc1Cl (configuration not stated)	i	>57
CSC1=NCCN1C(=O)c1cccs1	i	x
Cc1ccc(Nc2nc(N3CCOCC3)c3ccccc3n2)cc1	i	x
CCn1c(SCC(=O)Nc2cc(C)on2)nnc1-c1cccs1	i	>57
COCCN1C(=O)C(=O)/C(=C(/O)c2cccc(OC)c2)C1c1ccncc1 (configuration not stated)	i	>57
Cc1ccc(C(=O)NC2CCCc3ccccc32)o1 (configuration not stated)	i	>57
O=C(O)CCC(=O)NC1CCCCC1NC(=O)CCC(=O)O (configuration not stated)	i	x
O=C(CCS(=O)(=O)c1cccc2nonc12)N1CCOCC1	i	>57
COc1ccc(Cn2c(=O)[nH]c3cc(C(=O)N4CCN(Cc5ccccc5)CC4)ccc3c2=O)cc1	i	>57
CCOc1ccc(NC(=O)CSc2nnc(-c3ccccc3Cl)n2Cc2ccco2)cc1	i	>57
Cc1ccc(NS(=O)(=O)c2ccc(NC(=O)c3ccc(Br)o3)cc2)c(C)c1	i	>57
Cc1ccc2c(CC(=O)NCc3ccc4c(c3)OCO4)coc2c1	i	>57
Fc1ccccc1CSc1nnc(-c2cccs2)o1	i	>57

A different layout for part of the listing above.
canonical_smiles: CCOc1ccc(NC(=O)CSc2nnc(-c3ccccc3Cl)n2Cc2ccco2)cc1
  YjeE inh: i | PK Bst: >57

canonical_smiles: Cc1ccc(NS(=O)(=O)c2ccc(NC(=O)c3ccc(Br)o3)cc2)c(C)c1
  YjeE inh: i | PK Bst: >57

Continued.
SMILES	YjeE inh	PK Bst
C=CCOc1ccc(/C(O)=C2/C(=O)C(=O)N(CCCN3CCOCC3)C2c2ccc(OC)cc2)cc1 (configuration not stated)	x	>26
CC1CCN(CCCNC(=O)C2CC(=O)N(C3CCCCCC3)C2)CC1 (configuration not stated)	i	>57
C=C1C(=O)C=C2CN(C(=O)c3ccccc3)[C@@](Cc3ccc(F)cc3)(C(=O)OC)[C@@H]12	u	x
CC(C)Nc1c(N)c(=O)oc2ccccc12	i	>57
CS(=O)(=O)N1CCC(C(=O)NCc2ccncc2)CC1	i	>57
COc1cc(OC)c(N2CC34C=CC(O3)C(C(=O)O)C4C2=O)cc1Cl (configuration not stated)	i	>57
CCCCN1C(=O)C(NC(C)=O)c2ccccc21 (configuration not stated)	i	>57
Cc1ccc(S(=O)(=O)c2nc(NC3CCS(=O)(=O)C3)sc2Cl)cc1 (configuration not stated)	i	>57
CCCOc1ccccc1-c1nc2c([nH]1)c(=O)[nH]c(=O)n2C	i	>57
COc1cccc(OC)c1C(=O)Nc1c(C)n(C)n(-c2ccccc2)c1=O	i	x
Cc1ccc(NC(=O)c2cccs2)cc1NC(=O)c1ccco1	i	>57
CCCC1=C(C(=O)OCC)C(c2ccccc2OC)NC(=O)N1 (configuration not stated)	i	x
c1ccc(SC(Sc2ccccc2)c2ccc3c(c2)OCO3)cc1	i	x
CC(C)CCn1c(SCCN2CCOCC2)nc2c1c(=O)[nH]c(=O)n2C	i	>57
CCOc1ccccc1N1CCN(CC(=O)Nc2nnc(CC)s2)CC1	i	>57
CCOC(=O)c1[nH]c2ccc(F)cc2c1N=C(C)N(CC)CC	x	>26
O=C(NCc1ccc2c(c1)OCO2)C1CCCN(S(=O)(=O)c2cccc3nonc23)C1 (configuration not stated)	i	>57
Cc1cc(C)n(-c2nnc(C)n2/N=C/c2cc(Br)ccc2OCc2ccccc2)n1	i	x
O=C(Nc1cnc2sc3c(n2c1=O)CCCC3)c1ccc(F)cc1	i	>57
O=C(CSc1nnc(CNc2ccccc2)o1)N1CCN(C(=O)c2ccco2)CC1	i	>57
COc1ccc(Br)c2c1C[C@H](C(=O)O)CC2	i	x
CC(C)Sc1oc(-c2ccco2)nc1S(=O)(=O)c1ccccc1	i	>57
COc1ccc(S(=O)(=O)N(Cc2nc3ccccc3c(=O)[nH]2)C2CCCC2)cc1	i	>57
COC(=O)C1=C(C)NC(=O)CC1c1cc(Br)ccc1F (configuration not stated)	i	>57
COc1ccc(CCNC(=O)c2c(O)c3cccc4c3n(c2=O)CC4)cc1	i	>57
O=C(COc1ccccc1)NCC(=O)NC1=NCCS1	i	>57
OC(CN1C2=NCCCN2c2ccccc21)c1ccc2c(c1)OCO2 (configuration not stated)	i	>57
CCOC(=O)c1[nH]c(C)c(C(=O)OCC(=O)NC(=O)NC(C)(C)C)c1C	i	>57
CC(C)(C)c1ccc(S(=O)(=O)NCC(=O)N2CCN(C(=O)c3ccco3)CC2)cc1	i	>57
O=C(Cn1nnc(-c2ccccc2)n1)OCc1csc(-c2ccccc2)n1	i	>57
Cc1nn2c3c(cnc2c1-c1ccccc1)C(=O)CCC3	i	>57
CC(CCc1ccccc1)NC(=O)COC(=O)C1=COCCO1 (configuration not stated)	i	>57
Cc1ccc(C)c(S(=O)(=O)c2c(N)n(/N=C/c3ccco3)c3nc4ccccc4nc23)c1	i	>57
CCSC1=NCN(CCCC(=O)O)CN1	i	>57
O=C(c1ccc(Cl)cc1)N(Cc1cccs1)C1CCS(=O)(=O)C1 (configuration not stated)	i	>57
Cc1nc(NCCO)c(C#N)c2c1COC(C)(C)C2	x	>26
COCCNC(=O)CN1CCOc2ccccc21	i	x
CCN(CC)C(=O)c1ccc(NS(=O)(=O)c2ccccc2)cc1	i	>57
CCOC(=O)c1ccc(Nc2nnc3nc(C)cc(C)n23)cc1	i	>57
CC(=O)Nc1ccccc1NC(=O)CC(C)(C)C	i	>57
O=C(O)CC12C[C@H]3C[C@@H](CC(O)(C3)C1)C2	i	x
CCCN1Cc2cccc(C(=O)NCc3ccc4c(c3)OCO4)c2C1=O	i	>57
O=C(NCc1ccc(F)cc1)C1CCC(=O)N1C1CCCCC1 (configuration not stated)	i	>57
CCn1cc(C(=O)OC(C)C(=O)Nc2c(C)n(C)n(-c3ccccc3)c2=O)c(=O)c2ccc(C)nc21 (configuration not stated)	i	>57
CCC(C)C(NC(=O)c1ccc(Cl)cc1)C(=O)O (configuration not stated)	i	x
O=C1CC(c2ccccc2)CC(O)=C1C=NCCN1CCNCC1 (configuration not stated)	i	x
COC(=O)c1cn(C(=O)c2cccs2)c2ccccc12	i	>57
COc1ccc(C2CC(c3ccc(OC)cc3)n3nc(N)nc3N2)cc1 (configuration not stated)	i	x
CNS(=O)(=O)c1ccc(NC(=O)C(CCSC)NC(N)=O)cc1 (configuration not stated)	i	>57
CC(C)C(NC(=O)c1ccc(S(=O)(=O)N2CCOCC2)cc1)c1nc2ccccc2[nH]1 (configuration not stated)	i	>57
O=C(Nc1ccccc1)NC1CCN(CCCN2C(=O)c3ccccc3C2=O)CC1	i	>57
CC(C)OC(=O)C1C(=O)CC(C)(O)C(C(=O)OC(C)C)C1c1cccc(O)c1 (configuration not stated)	i	>57
CCCCn1c(NCCN(C)C)nc2c1c(=O)[nH]c(=O)n2C	i	>57
CC(=O)NCCNc1cc(-c2ccccc2C(F)(F)F)ncn1	i	x
O=C(COC(=O)c1ccccn1)Nc1ncc(C(F)(F)F)cc1Cl	i	>57
CCOC(=O)c1c(C)oc2c1c1c(c3ccccc32)OCN(Cc2cccnc2)C1	i	i
CC(Oc1ccc(Cl)cc1Cl)C(=O)NCCCn1ccnc1 (configuration not stated)	i	>57
Cc1ccc(-c2nnn(CC(=O)N(c3ccc(F)cc3)C(C(=O)NC3CCCC3)c3ccco3)n2)o1 (configuration not stated)	i	>57
O=C1Nc2ccccc2C1=Nc1ccc(-c2nnc3n2CCCCC3)cc1	i	>57
FC(F)(F)c1ccccc1-c1ccc2ncnc(NC3CC3)c2c1	i	x

Quoted from above (4 entries):
SMILES	YjeE inh	PK Bst
CC(Oc1ccc(Cl)cc1Cl)C(=O)NCCCn1ccnc1 (configuration not stated)	i	>57
Cc1ccc(-c2nnn(CC(=O)N(c3ccc(F)cc3)C(C(=O)NC3CCCC3)c3ccco3)n2)o1 (configuration not stated)	i	>57
O=C1Nc2ccccc2C1=Nc1ccc(-c2nnc3n2CCCCC3)cc1	i	>57
FC(F)(F)c1ccccc1-c1ccc2ncnc(NC3CC3)c2c1	i	x

(list continues)
SMILES	YjeE inh	PK Bst
Cc1ccccc1-n1c(Cn2c(=O)sc3ccccc32)nnc1SCC(=O)N1CCOCC1	i	x
CCC(C)NC(=O)CCNS(=O)(=O)c1ccc(Br)cc1 (configuration not stated)	i	>57
CC(=O)C1=C(O)C(=O)N(c2ccc(C(=O)O)cc2)C1c1ccccc1 (configuration not stated)	x	>26
c1ccc(Cc2nnc3sc(Nc4ccccc4)nn23)cc1	i	>57
C/C=C/c1ccccc1OCc1ccc(C(=O)O)o1	x	>26
NC(=O)C1CCCN(Cc2ccc(Cl)cc2)C1 (configuration not stated)	i	x
CC(=O)c1ccc(NC(=O)C2CCC(C)NC2=O)cc1 (configuration not stated)	i	>57
Cc1cc2cc(CN(Cc3ccco3)C(=O)NCc3ccccc3)c(=O)[nH]c2cc1C	i	>57
CCS(=O)(=O)NCCc1cc2cc(C)c(C)cc2[nH]c1=O	i	>57
CCCCN(CC)S(=O)(=O)c1ccc2c(c1)CCCN2C(C)=O	i	>57
O=C(CN(C(=O)C1CSC(=O)C1)c1ccccc1F)NCc1ccc2c(c1)OCO2 (configuration not stated)	i	>57
O=C(Cn1cnc2ccccc2c1=O)NCC(=O)N1CCN(c2ccccn2)CC1	i	>57
O=C(CCCC1=NS(=O)(=O)c2ccccc2N1)N1CCN(c2ccccc2)CC1	i	>57
CSc1nc(C)cc(OCC(=O)N2CCOCC2)n1	i	>57
O=C(CCN1CCCCCC1)Nc1ccc(F)c(F)c1	i	x
CC1CCN(c2nnc(N3CCC(C)CC3)c3ccccc23)CC1	i	x
CCOC(=O)N1CCC(NC(=O)COc2cc(=O)n(C)c3ccccc23)CC1	i	x
Cc1cc(NCCCN2CCOCC2)n2ncc(-c3ccc(Cl)cc3)c2n1	i	x
CSc1nc(-c2ccco2)nn1C(=O)c1ccco1	i	x
COC(=O)CNC(=O)c1cn(CC(C)C)c(=O)c2cc(OC)c(OC)cc12	i	>57
Cc1c(C(=O)NCCCN2CCCC2=O)oc2ccccc12	i	>57
CN(C)c1ncc2nc(CCc3ccccc3)c(=O)n(Cc3cccs3)c2n1	i	x
COc1ccc(-c2nc(CSCC(=O)N3CCN(C(=O)c4ccco4)CC3)c(C)o2)cc1OC	i	x
CC(=O)N1CCC2(CC1)CCN(C(=O)Nc1cccc(C#N)c1)CC2	i	x
CCOC(=O)C1CCN(C(=O)CCNC(=O)Cn2ccc3ccccc3c2=O)CC1	i	>57
CCCCOCCCNC(=O)c1ccc(NC(C)=O)cc1	i	x
COc1ccc(CSc2nncn2N)cc1Br	i	x

An excerpt; the hit share may differ from the screen's.
